LANA-H2A inh – blockers of LANA interaction with H2A/H2B – biochemical, FP readout, HTS, primary screen; Protein LANA1 (Human herpesvirus 8 type P (isolate GK18)), Q9QR71; cell-free LANA-H2A/H2B peptide, fluorescence polarization; inhibition, % (no concentration beside the values); hit rate 0.6% among 320,000; in the data active = inhibition mostly above about 10%, no sharp cut-off; inactive = mostly below about 6.7%;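 note: stock transfer was 7.5 nL into about 10 µL; 0% = median of vehicle wells and 100% = median of positive control wells; one replicate is shown; the record names a cut of 25% in any replicate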
Target sequence (Q9QR71 whole entry, looked up): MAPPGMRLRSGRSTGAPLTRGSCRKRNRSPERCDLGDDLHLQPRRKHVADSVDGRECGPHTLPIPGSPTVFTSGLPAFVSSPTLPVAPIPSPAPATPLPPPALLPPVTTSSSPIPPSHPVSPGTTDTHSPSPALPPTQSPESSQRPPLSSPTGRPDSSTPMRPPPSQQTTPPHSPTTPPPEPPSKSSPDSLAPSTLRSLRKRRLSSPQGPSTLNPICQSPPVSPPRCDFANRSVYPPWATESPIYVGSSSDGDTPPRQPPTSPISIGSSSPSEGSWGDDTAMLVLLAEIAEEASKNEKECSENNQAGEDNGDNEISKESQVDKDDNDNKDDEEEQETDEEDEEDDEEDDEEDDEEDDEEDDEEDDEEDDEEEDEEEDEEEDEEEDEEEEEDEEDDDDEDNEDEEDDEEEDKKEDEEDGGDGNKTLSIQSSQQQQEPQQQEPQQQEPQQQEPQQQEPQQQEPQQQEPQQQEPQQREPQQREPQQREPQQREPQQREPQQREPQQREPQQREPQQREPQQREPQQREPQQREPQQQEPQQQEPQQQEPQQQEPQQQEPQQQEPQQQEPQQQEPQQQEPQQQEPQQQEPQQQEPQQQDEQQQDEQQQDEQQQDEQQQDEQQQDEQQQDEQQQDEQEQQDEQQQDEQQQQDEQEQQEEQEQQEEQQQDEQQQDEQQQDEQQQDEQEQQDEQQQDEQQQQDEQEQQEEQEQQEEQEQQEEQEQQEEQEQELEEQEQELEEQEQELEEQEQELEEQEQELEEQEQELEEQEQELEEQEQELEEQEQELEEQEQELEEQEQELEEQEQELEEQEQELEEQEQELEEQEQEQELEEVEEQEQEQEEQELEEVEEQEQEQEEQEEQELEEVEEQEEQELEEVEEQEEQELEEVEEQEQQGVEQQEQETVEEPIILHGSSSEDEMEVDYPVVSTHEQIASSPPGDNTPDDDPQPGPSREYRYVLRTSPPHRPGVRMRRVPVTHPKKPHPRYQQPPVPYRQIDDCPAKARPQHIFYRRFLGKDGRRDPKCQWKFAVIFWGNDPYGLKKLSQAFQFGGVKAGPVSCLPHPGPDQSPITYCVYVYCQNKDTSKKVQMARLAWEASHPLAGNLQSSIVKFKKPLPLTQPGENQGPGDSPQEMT
UCH37 DUB inh – inhibitors of human UCH37 deubiquitinase, primary screen, biochemical, Ub-AMC cleavage, fluorescence; hit rate 0.33% among 330,000; inhibition, % (test concentration not listed); Ubiquitin carboxyl-terminal hydrolase isozyme L5 (Homo sapiens), Q9Y5K5; purified proteasome/UCH37;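 active = mean of two replicates above 20%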;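 note: 0% = compound-free wells with enzyme and 100% = wells lacking proteasome; stock transfer was 100 nL into about 20 µL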
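system = Proteasome-associated human UCH37 deubiquitinase | amount = 0.15 nM proteasome as dispensed | medium = pH 7.4 Tris-HCl (50 mM) with ovalbumin, ATP-MgCl2, DTT | incubation = 30 min preincubation with enzyme, 25 min cleavage at room temperature | detection = AMC fluorescence 355/460 nm | read-out basis = percent inhibition | controls = no-proteasome and no-compound wells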
B2AR ag – beta2AR agonists driving receptor internalization, primary screen, cell-based, FAP fluorogen, flow cytometry; response, % (test concentration not listed); Am2.2-beta2AR cells; reference of the scale not given here; hit rate 0.43% among 340,000; Beta-2 adrenergic receptor (Homo sapiens), P07550;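 active = response above a set limit, near 3 SD of response in nonfluorescent compounds, cut at about 42% in these data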;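 note: stock transfer was 100 nL into about 11 µL; a reference agonist was the positive control; negative values mostly stem from fluorescent compounds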
T cruzi repl – inhibitors of intracellular T. cruzi growth, primary screen, luminescence, NIH3T3 host cells. inhibition, % (concentration not given with the values). hit rate 1.4% among 300,000. T. cruzi beta-gal in NIH3T3, 90 h;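 active = mean inhibition across valid replicates above about 55%, limit read from the data; inconclusive = mean below that limit but half or more replicates reach it; inactive = mean below it, under half of replicates reach it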;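 note: signal also drops with host cell toxicity which is not excluded here; 0% = plate median of DMSO wells and 100% = zero luminescence signal; higher percent means less beta-gal luminescence so fewer parasites; stock transfer was 50 nL into about 50 µL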
Beta apoptosis – inhibitors of cytokine-induced beta cell apoptosis, primary screen, luminescence; protection from apoptosis, % (no concentration beside the values); INS-1E cytokine-induced death, ATP luminescence, 48 h; percent of positive-control rescue, neutral wells zero; hit rate 0.8% among 300,000; AID 435005, 2010;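 active = all replicates at 75% or more, or half of them and the mean; inconclusive = half reach 75% but not the mean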;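 note: 0% = cytokine-treated negative control wells and 100% = positive control rescue; higher means more ATP so stronger rescue from cytokine killing; wells of about 40 µL received 100 nL stock; the first replicate is given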
Calb FLC – C. albicans growth inhibition with fluconazole, primary screen, CaCi-2 strain, Alamar Blue fluorescence. C. albicans CaCi-2 (fluconazole-resistant clinical isolate) + fluconazole, 48 h. growth inhibition, % (concentration not given with the values). hit rate 0.57% among 300,000. AID 1979, 2009;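 active = most replicates above 75%; inconclusive = exactly half above 75%; inactive = most below 75%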;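 note: all wells also contain fluconazole at 8 µg/ml as a sub-toxic cotreatment; 0% = median of DMSO wells and 100% = median of geldanamycin control wells; wells of about 8 µL received 7.5 nL stock; the first replicate is given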
RanGTP-Imp inh – inhibitors of RanGTP-importin-beta interaction, primary screen, biochemical, FRET, CFP-Ran, YFP-importin-beta, homogeneous. cell-free CFP-Ran/YFP-importin-beta FRET ratio. AID 2216, 2009. inhibition, % (concentration not given with the values). hit rate 1.1% among 300,000;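 active = most replicates above 15%; inconclusive = exactly half above 15%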;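 note: 0% = DMSO wells and 100% = Ran loaded with GDP instead of GTP; wells of about 40 µL received 100 nL stock; the first replicate is given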
Bfl-1 A1 inh – caspase 3/7 activation in MEF A1-2A-BIM cells, primary screen, A1 inhibitor project, cell-based, luminescence, HTS; Caspase-Glo 3/7 luminescence, 3 h; percent of clofoctol response, vehicle zero; hit rate 0.066% among 330,000; AID 2462, 2010; caspase activation, % (no concentration beside the values);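 active = over half of replicate activation scores above 10%, or exactly half above 10 with the replicate mean above 10; inconclusive = replicate mean below 10 yet half the replicates above 10; inactive = over half of replicates below 10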;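 note: wells of about 30 µL received 50 nL stock; many hits fall short of the cut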
The depositor's hits bear a star; ? = inconclusive; . = not tested or not shown.

SMILES | LANA-H2A inh | UCH37 DUB inh | B2AR ag | T cruzi repl | Beta apoptosis | Calb FLC | RanGTP-Imp inh | Bfl-1 A1 inh
O=C(c1cc(S(=O)(=O)N2CCOCC2)c(Cl)cc1Cl)N1CCCCC1 | 3.4 | 0.6 | -6 | 1 | -2 | 2 | 3.5 | -0.2
CCc1nn(C(C)C(=O)NCCc2ccc(OC)c(OC)c2)c(=O)c2cc3occc3n12 (configuration not stated) | -1.6 | 0.6 | -5 | . | 1 | 1 | -3.3 | -0.3
CCCCn1c(C)cc(/C=C(\C#N)C(=O)O)c1C | -0.1 | 13 | -1 | 17 | 0 | 21 | -18 | 1.9
CC(C)COc1cccc(C(=O)NC(=S)Nc2cccc(NC(=O)c3ccccc3Cl)c2)c1 | 1.7 | 6.1 | 10 | 30 | 1 | -15 | 7.8 | 0.3
Cc1nc(SCC(=O)Nc2cccnc2Cl)nc(C)c1C | -1.9 | 3.5 | 2 | 0 | -3 | 6 | -0.1 | 0.9
O=S(=O)(c1cc(Cl)cc(Cl)c1O)N1CCC2(CC1)OCCO2 | -1.3 | 2.6 | 5 | -6 | 4 | 32 | 0.4 | -0.6
c1ccc2c(Cn3nnc4ccccc43)cccc2c1 | 9.5 | -0.1 | 11 | 3 | . | 15 | -1.3 | 0.6
CC1Cc2ccccc2N1C(=O)CSc1nc2c(c(=O)n(C)c(=O)n2C)n1Cc1ccccc1 (configuration not stated) | 3.5 | 4.6 | 10 | 57* | 20 | 54 | -0.2 | ?
Cc1cc(C)n(C(C)CNC(=O)c2ccc3c(c2)OCO3)n1 (configuration not stated) | -0.5 | 1.3 | 1 | -10 | 1 | 1 | -3.0 | 0.5
Cc1cccc(N2CCN(S(=O)(=O)c3ccc4c(c3)C(C)(C)C(=O)N4C)CC2)c1C | -0.6 | 1.6 | 4 | 39 | -1 | 1 | 1.6 | 1.1
Cc1cccc(C)c1NC(=O)C1CCCN1S(=O)(=O)c1ccc2c(c1)n(C)c(=O)c(=O)n2C (configuration not stated) | -2.4 | 2.2 | 1 | -2 | 2 | 5 | -2.7 | 1.3
Clc1ccc(-c2nnnn2-c2ccc(Cl)cc2)cc1 | -2.4 | 2.7 | -16 | 3 | 5 | 5 | 1.7 | -0.2
Cc1cc(C(=O)OCC(=O)N2CC(C)OC(C)C2)ccc1[N+](=O)[O-] (configuration not stated) | 2.0 | 0.9 | -11 | -16 | -1 | -15 | -0.1 | 0.1
Cc1cc(C)nc(NC(=O)c2ccccc2O)n1 | 1.2 | 3.4 | -1 | -6 | 4 | 11 | 1.9 | -0.6
CCCc1nnc(NC(=O)c2ccc([N+](=O)[O-])cc2)s1 | 0.0 | 3.6 | 4 | -6 | 4 | 16 | 7.0 | 1.3
O=C(O)c1ccc2c(=O)n(-c3ccc(F)cc3)c(=S)[nH]c2c1 | -2.1 | -1.6 | 3 | -4 | -4 | -8 | 1.8 | 0.4
Fc1ccc(CNc2nc3ccccc3n3nnnc23)cc1 | -1.1 | -12 | 5 | -18 | 4 | 3 | 29* | 0.0
CCC(Cc1ccccc1)NC(=O)C1CCN(S(=O)(=O)c2c(C)noc2C)CC1 (configuration not stated) | -1.1 | 2.5 | -1 | 1 | -6 | -3 | -4.9 | 0.4
CCOC(=O)CN(C(=O)c1ccccc1)c1ccccc1C | 1.6 | -0.6 | -5 | -17 | 0 | 7 | 1.5 | 0.1
O=C(N/C(=C\c1cccnc1)C(=O)N1CCCCC1)c1cccc(Br)c1 | -10 | 4.9 | 11 | -3 | 3 | 2 | 0.9 | 0.1
CCOC(=O)CNC(=O)CSc1nnc(-c2ccccc2)n1Cc1ccco1 | -3.4 | 3.1 | -2 | -14 | 4 | -3 | 5.6 | -0.8
Nc1nc(Nc2cccc(Cl)c2)nc(NCc2ccco2)c1[N+](=O)[O-] | -4.1 | 9.6 | -6 | 26 | -4 | 2 | -4.5 | -1.3
CC(NC(=O)/C=C/c1ccco1)c1nc2ccccc2n1Cc1c(Cl)cccc1Cl (configuration not stated) | -7.8 | -0.5 | 1 | 38 | 0 | 0 | 0.4 | 1.2
COc1ccccc1CN1CCNC(=O)C1CC(=O)N(C)Cc1nc(C)cs1 (configuration not stated) | 2.5 | . | 3 | -8 | 3 | 0 | -0.6 | 0.3
Cc1ccc(S(=O)(=O)N(C)C)cc1NC(=O)CSc1nncs1 | -4.0 | 1.9 | -5 | -5 | 0 | -15 | -0.4 | 0.4
O=C(c1cn(-c2ccccc2)nc1-c1ccncc1)n1nnc2ccccc21 | -5.1 | 3.5 | 0 | -11 | -8 | 3 | -5.3 | 0.2
CCn1cc(C2=NC(C)CO2)c2ccccc21 (configuration not stated) | -3.8 | -0.4 | 6 | -26 | -4 | -35 | 5.1 | -0.2
CCN1c2ccccc2-c2nc3ccccc3n2C1c1ccncc1 (configuration not stated) | -1.5 | -14 | -2 | -8 | 4 | 0 | 0.9 | 0.4
Cc1cccc(OCC(=O)Nc2ccc(C(=O)O)cc2NC(=O)COc2cccc(C)c2)c1 | 6.0 | 1.8 | 0 | -15 | 1 | 3 | -4.3 | 1.0
COc1ccc(Br)cc1/C=N/NC(=O)CN1CCCCC1 | -11 | . | 6 | -7 | -1 | 1 | 2.9 | -0.2
CCOC(=O)C1CCCN(C(=O)c2cn(CC(C)C)c(=O)c3cc(OC)c(OC)cc23)C1 (configuration not stated) | -0.6 | -1.6 | -10 | 19 | -2 | 2 | 1.2 | 0.3
NC(CSC12CC3CC(CC(C3)C1)C2)C(=O)O (configuration not stated) | -2.7 | 4.0 | 3 | 22 | -4 | ? | 0.0 | 0.8
Nc1ncnc2c1ncn2C1CCCC1 | 5.6 | 1.3 | -6 | . | -8 | . | . | 0.2
CC(C)(C)CN1CCN(Cc2nc(-c3ccc(F)cc3)cs2)CC1CCO (configuration not stated) | 1.5 | 1.3 | 2 | -28 | 7 | 10 | -1.2 | -0.3
CC(C)[C@H]1CC[C@@H](C)C(C(=O)c2ccccc2)C1=O (some centres not stated) | 0.6 | 2.9 | 0 | -9 | -3 | -3 | -0.2 | 1.3
Cc1ccc(C2=C/C(=C\c3cccnc3)C(=O)O2)cc1 | -5.0 | -0.3 | -2 | -9 | 0 | 7 | 8.9 | 0.2
NCC(O)CN(c1ccccc1)c1ccccc1 (configuration not stated) | -4.1 | 2.7 | 9 | -1 | . | -4 | 5.3 | 0.2
Cc1cccc(NC(=S)/N=C(\N)Nc2nc(C)c3ccc(C)cc3n2)c1 | 6.2 | 0.4 | -1 | 60* | 3 | -31 | 1.1 | 0.6
CC(C)(C)NC(=O)CN(C(=O)CS(=O)CC(=O)Nc1ccc(F)cc1)c1cccc(F)c1 (configuration not stated) | -0.4 | 5.7 | 2 | -1 | -4 | 9 | 2.9 | 0.6
CCCCNC(=S)N(C)/N=C/c1c(F)cccc1F | -7.2 | . | 5 | 8 | -1 | -1 | -3.9 | 1.2
CCc1ccccc1NC(=S)NCc1ccc2c(c1)OCO2 | -7.6 | 3.9 | 3 | -2 | 5 | -39 | -2.1 | -0.4
COc1ccc(NC(=O)/C(=C\c2ccc(F)cc2)NC(=O)c2ccco2)cc1 | 0.4 | 1.1 | 2 | 17 | -3 | 1 | -2.3 | -0.2
c1ccc(-c2nnc3n2CCCC3)cc1 | 0.8 | 4.1 | -2 | -21 | -12 | 8 | 3.2 | 0.7
Cc1cccc(NC(=O)CNC(=O)CN2C(=O)NC3(CCCCC3C)C2=O)c1C (configuration not stated) | 1.2 | 6.1 | 1 | 3 | -3 | . | ? | 1.1
O=[N+]([O-])c1ccc(S(=O)(=O)Nc2cccc(-c3ccc(N4CCCC4)nn3)c2)cc1 | -7.8 | 3.3 | -4 | 31 | -3 | 69 | 0.3 | -0.2
COc1ccc(CCNC(=O)CCN2C(=O)[C@@H]3Cc4ccccc4CN3C2=O)cc1 | 7.8 | -0.5 | -7 | -2 | -3 | 3 | -4.5 | 0.4
c1ccc2c(c1)oc1c(NCCCn3ccnc3)ncnc12 | 4.6 | -2.1 | -17 | 34 | -9 | 3 | 1.8 | -0.3
CCOC(=O)Cc1c(C)nc2c(-c3ccccc3OC)c(C)nn2c1C | 0.7 | 4.9 | -5 | 1 | 1 | -6 | -1.9 | 0.0
CCOc1ccc(CN(C)CCc2ccccn2)cc1 | -1.6 | 1.4 | 3 | 50 | -8 | -18 | ? | 0.4
COc1ccc(OC)c(C2=NOC(C(=O)N3CCN(c4ccccc4)CC3)C2)c1 (configuration not stated) | -0.5 | -3.4 | 6 | -3 | -2 | -3 | -0.5 | 0.5
CCC(C)c1ccccc1N1CC(C(=O)N2CCN(S(=O)(=O)c3ccc(F)cc3)CC2)CC1=O (configuration not stated) | 0.3 | 2.2 | -12 | 0 | -6 | 2 | 1.5 | -0.5
Cn1cc(CN2CCC(n3nccc3NC(=O)CCCc3ccccc3)CC2)cn1 | -1.3 | -0.9 | 1 | 26 | . | 2 | 0.6 | -0.5
O=C(COC(=O)/C=C/c1ccccc1Cl)NCCNC(=O)COC(=O)/C=C/c1ccccc1Cl | 2.6 | 2.2 | -7 | -11 | -1 | -1 | -1.6 | 0.1
O=C(NCc1ccccc1)c1ccc(Oc2ccc(C(=O)NCc3ccccc3)cc2)cc1 | 0.5 | 3.0 | -7 | 23 | 0 | -6 | 0.1 | 2.0
O=S(=O)(/C=C/c1ccccc1)Nc1ccc2c(c1)OCO2 | 5.9 | 1.3 | 3 | -6 | -5 | -19 | -1.3 | -0.2
CCCn1c(SCC(=O)NC(=O)Nc2ccc(C)cc2C)n[nH]c1=O | -1.4 | 4.1 | -5 | -7 | . | 5 | -2.3 | 0.3
COc1cc(/C=N/N2C(=O)c3ccccc3C2=O)ccc1O | 0.0 | . | -1 | -7 | -5 | 26 | 0.7 | 0.3
CSc1cccc(NC(=O)C(C)NS(=O)(=O)c2ccc(F)cc2)c1 (configuration not stated) | 1.7 | 1.6 | 5 | . | -9 | 3 | 0.9 | -0.3
COCCNC(=O)Cn1cc2c(n1)CCCCC2 | -4.6 | 0.8 | -2 | -17 | -1 | 14 | ? | 0.3

Only B2AR ag and Beta apoptosis, for two of the compounds above:
molecule | B2AR ag | Beta apoptosis
CSc1cccc(NC(=O)C(C)NS(=O)(=O)c2ccc(F)cc2)c1 (configuration not stated) | 5 | -9
CCC(C)c1ccccc1N1CC(C(=O)N2CCN(S(=O)(=O)c3ccc(F)cc3)CC2)CC1=O (configuration not stated) | -12 | -6
